# High-throughput results as filed in PubChem BioAssay.
# D2 PAM – Beta-Arrestin HTS for Positive Allosteric Modulators of the Human D2 Dopamine Receptor: Potentiators. 360,000 tested, 0.23% active. potentiation, % (concentration not given with the values). DiscoveRx D2 beta-arrestin cells, luminescence, 90 min; 100% = 57 uM dopamine signal; active = potentiation of 50% or more; inconclusive = 30% to 50%; inactive = 30% or less;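 further: compound concentration not given in the record; tested on top of an EC20 dose of dopamine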
# Target sequence (P14416 whole entry, looked up): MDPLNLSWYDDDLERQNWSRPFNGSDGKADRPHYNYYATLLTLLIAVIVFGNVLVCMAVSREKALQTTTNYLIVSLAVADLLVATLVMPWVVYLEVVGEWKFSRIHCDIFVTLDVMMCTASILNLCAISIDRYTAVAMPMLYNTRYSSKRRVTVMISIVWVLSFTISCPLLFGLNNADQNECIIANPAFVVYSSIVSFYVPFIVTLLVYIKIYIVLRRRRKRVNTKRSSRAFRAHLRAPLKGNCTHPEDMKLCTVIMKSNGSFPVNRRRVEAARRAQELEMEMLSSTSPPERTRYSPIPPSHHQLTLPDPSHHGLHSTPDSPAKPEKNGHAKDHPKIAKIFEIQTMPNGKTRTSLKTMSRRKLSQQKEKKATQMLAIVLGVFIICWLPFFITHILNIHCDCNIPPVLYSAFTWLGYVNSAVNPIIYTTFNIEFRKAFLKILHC
#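 PathHunter D2 cells, attached overnight at 37 deg C, received compound in DMSO plus dopamine at EC20 (50 nM final) for 90 min at 37 deg C. Beta-arrestin recruitment was read as luminescence after 1 h with detection reagent at ambient temperature.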
# TRPML1 blocker – qHTS for Inhibitors of the Human Mucolipin Transient Receptor Potential 1 (TRPML1) | Mucolipin-1 (Homo sapiens), Q9GZU1 | TRPML1-inducible cells, Ca2+ dye fluorescence, FDSS; stronger effect = lower value; inhibition of EC80 agonist-evoked calcium signal | activity change, negative = inhibition, % (no concentration beside the values) | 390,000 tested, 0.02% active; in the data active means activity change below about -50%; inconclusive means about -30% to -50%; inactive means above about -30%;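 further: stimulus is agonist 54-4 at its EC80 concentration; on the % scale 0 is the no-effect control and ±100 the full control effect; compound concentration not given in the record; the text of the record puts the active cut at -80%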
# Target sequence (Q9GZU1 whole entry, looked up): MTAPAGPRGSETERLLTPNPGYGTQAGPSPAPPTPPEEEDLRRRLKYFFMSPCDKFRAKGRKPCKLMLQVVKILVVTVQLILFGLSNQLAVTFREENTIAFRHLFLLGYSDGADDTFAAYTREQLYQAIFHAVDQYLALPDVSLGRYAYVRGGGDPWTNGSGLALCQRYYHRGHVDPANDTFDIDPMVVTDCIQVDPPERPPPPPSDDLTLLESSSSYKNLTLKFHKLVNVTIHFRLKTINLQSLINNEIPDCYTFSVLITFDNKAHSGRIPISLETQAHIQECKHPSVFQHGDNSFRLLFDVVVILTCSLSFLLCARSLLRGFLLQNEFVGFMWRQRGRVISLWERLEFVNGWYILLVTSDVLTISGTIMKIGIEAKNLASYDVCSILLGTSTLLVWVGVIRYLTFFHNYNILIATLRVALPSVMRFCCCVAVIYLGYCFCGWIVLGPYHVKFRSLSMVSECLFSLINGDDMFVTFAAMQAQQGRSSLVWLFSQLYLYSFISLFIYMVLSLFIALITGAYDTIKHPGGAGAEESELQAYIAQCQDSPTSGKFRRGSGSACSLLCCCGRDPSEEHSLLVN
#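 Tet-induced TRPML1-DL cells loaded with Ca8 no-wash calcium dye were read kinetically on FDSS. Compound addition was followed by EC80 agonist 54-4 (4 uM final); inhibition was read over 110 s.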
# Six1-Eya2 blk – qHTS Assay for Inhibitors of the Six1/Eya2 Interaction; activity change, % (no concentration beside the values); AlphaScreen GST-Six1/His-Eya2 binding, biochemical; stronger effect = lower value; control for the full effect not named in the record; 360,000 tested, 0.56% active; in the data active = activity change below about -65%; inconclusive = about -30% to -65%; inactive = above about -30%; further: on the % scale 0 is the no-effect control and ±100 the full control effect; compound concentration not given in the record
#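 AlphaScreen with GST-Six1 and His-Eya2 (5X mix: 250 nM and 500 nM), glutathione donor and nickel acceptor beads; buffer 50 mM Tris pH 8.0, 300 mM NaCl, 1 mM TCEP; 1 h at 37 C in the dark.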
# D2 ag – Beta-Arrestin HTS for Positive Allosteric Modulators of the Human D2 Dopamine Receptor: Agonists; D(2) dopamine receptor (Homo sapiens), P14416; DiscoveRx PathHunter D2 beta-arrestin, luminescence, 90 min; 100% = 57 uM dopamine signal; activation, % (no concentration beside the values); 360,000 tested, 0.084% active; AID 624465, 2012; in the data active = activation above about 40%; inconclusive = about 15% to 40%; inactive = below about 15%; further: compound concentration not given in the record; the text of the record calls up to 30% inactive
#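 DiscoveRx PathHunter D2 beta-arrestin cells (2,100/well) attached overnight, then compound-stimulated 90 min at 37 C in HBSS/10 mM HEPES/0.1% Tween-20 buffer; beta-galactosidase complementation read by luminescence after 1 h at ambient temperature. Dopamine 57 uM final (EC100) as control.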
# PINK1 expr mod – A Quantitative High throughput Screen to Identify Chemical Modulators of PINK1 Expression | Potency, µM (titrated, usually from 76.6 µM), without a hit: at the top dose activation (PINK1 increase), hits mostly activators | PINK1 immunofluorescence, high-content cytometry, 24 h | 410,000 tested, 0.2% active | AID 624263, 2012; active = well fitted activation curve with a large enough effect; inconclusive = small, poorly fitted or top-dose-only effect; inactive = flat fitted curve, though single readings scatter; cell line not stated here;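 further: potency means the concentration at half of the fitted maximal effect; % of control where 0% means no effect; nearly all actives have a fitted effect of over 65% in size; a mitochondrial uncoupler was the plate control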
#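 Readout is PINK1 immunofluorescence, quantified alongside mitochondrial, cell and nuclear markers by laser-scanning microplate cytometry. Cells from a stable line were exposed to compound titrations (5 concentrations) for 24 hours, with CCCP controls.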
# TRPML1 agonist – qHTS for Agonists of the Human Mucolipin Transient Receptor Potential 1 (TRPML1). AID 624414, 2012. 410,000 tested, 0.12% active. activation, % (test concentration not listed). TRPML1-expressing cells, Ca2+ dye fluorescence, FDSS; host cell line not named in the record; reference of the full effect not given here; in the data active = activation above about 50%; inconclusive = about 30% to 50%; inactive = below about 30%; further: 0% is about no effect; the text of the record puts the active cut at 80%
#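 In this qHTS format, compounds were pin-transferred onto Ca8-dye-loaded TRPML1-DL cells induced with Tet overnight, and intracellular Ca2+ fluorescence was recorded kinetically for 110 s after a 10 s baseline. A subsequent 4uM final 54-4 (EC80) addition followed by a second 110 s read served as the antagonist phase.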
# * = called active by the depositor; ? = inconclusive; . = no result given; & = joins results of further samples; [ ] = remark or other dose.
SMILES,D2 PAM,TRPML1 blocker,Six1-Eya2 blk,D2 ag,PINK1 expr mod,TRPML1 agonist
C=CCN1C(=O)c2ccc(C(=O)OCC(=O)Nc3ccc(S(N)(=O)=O)cc3)cc2C1=O,-1,2,-18,-5.6,2.8%,0.5
CN(Cc1ccno1)Cc1cn(C)nc1-c1ccc(Oc2ccccc2)cc1,1,-4,6,0.4,7.5%,0.2
CCCCSCc1ccc(C(=O)O)o1,-6,-8,21,-1.3,8.7%[38.3 µM],-0.8
COC(=O)c1ccc(NC(=O)CSc2nnc(COc3ccc4c(c3)CCCC4)o2)cc1,1,0,6,-1.4,1.1%[38.3 µM],0.8
C=CCC1(CC=C)CCCN1C(=O)C1CCC(=O)N(CCc2ccccc2)C1 (stereo unspecified),-8,10,9,4.6,4.7%,-0.4
CC(C)C(c1nnnn1C1CCCCC1)N1CCc2ccccc2C1 (stereo unspecified),-12,15,5,-2.1,.,0.5
Cc1cccc(NC(=S)NNC(=O)c2sccc2C)c1,-20,-2,-2,-5.6,13%[38.3 µM],-0.6
CCC1CCCCN1C(=O)Cn1c(=O)n(CCCC(=O)NCc2ccco2)c(=O)c2sccc21 (stereo unspecified),-5,3,9,-15,1.3%,-1.5
C/C(=N\Nc1cc(C)nc(-c2ccccc2O)n1)c1ccccc1,-2,5,-7,0.7,5.7%,1.9
CCOc1ccccc1NC(=O)C(c1ccccc1)N1CCN(CC(=O)N2CCCC2)CC1 (stereo unspecified),-10,2,2,-1.7,2.7%,-1.1
O=C(Cn1c(=O)n(-c2ccccc2)c(=O)c2c3c(sc21)CCCC3)Nc1ccc(F)cc1,.,28,.,.,2.4%,-0.6
O=C(CSc1nc2c(cnn2-c2cccc(Cl)c2)c(=O)[nH]1)NCCC1=CCCCC1,9,-11,6,3.5,0.2%,0.4

# The last seven entries of the section above lead into the next.
SMILES,D2 PAM,TRPML1 blocker,Six1-Eya2 blk,D2 ag,PINK1 expr mod,TRPML1 agonist
CC(C)C(c1nnnn1C1CCCCC1)N1CCc2ccccc2C1 (stereo unspecified),-12,15,5,-2.1,.,0.5
Cc1cccc(NC(=S)NNC(=O)c2sccc2C)c1,-20,-2,-2,-5.6,13%[38.3 µM],-0.6
CCC1CCCCN1C(=O)Cn1c(=O)n(CCCC(=O)NCc2ccco2)c(=O)c2sccc21 (stereo unspecified),-5,3,9,-15,1.3%,-1.5
C/C(=N\Nc1cc(C)nc(-c2ccccc2O)n1)c1ccccc1,-2,5,-7,0.7,5.7%,1.9
CCOc1ccccc1NC(=O)C(c1ccccc1)N1CCN(CC(=O)N2CCCC2)CC1 (stereo unspecified),-10,2,2,-1.7,2.7%,-1.1
O=C(Cn1c(=O)n(-c2ccccc2)c(=O)c2c3c(sc21)CCCC3)Nc1ccc(F)cc1,.,28,.,.,2.4%,-0.6
O=C(CSc1nc2c(cnn2-c2cccc(Cl)c2)c(=O)[nH]1)NCCC1=CCCCC1,9,-11,6,3.5,0.2%,0.4
Cc1cccc(OCC(=O)OCC(=O)N2CCN(C(=O)c3ccco3)CC2)c1C,-11,-9,-3,-2.1,-1.6%,-0.3
Cc1ccc(OCCn2ccc(=O)[nH]c2=O)cc1C,-4,-1,4,-1.5,1.9%,-0.6
CCCCN1C(=O)CC(Sc2ccccc2C(=O)O)C1=O (stereo unspecified),-2,-1,-1,2.0,-5.0%[38.3 µM],0.3
COc1cccc(C(=O)CSc2nc3cccnc3n2C)c1,-3,29,22,0.9,-1.6%,1.8
CCCCNC(=O)C1c2ccccc2Oc2ccccc21,0,-5,3,5.4,0.8%,2.1
C[C@H]1CCCCO[C@H](CN(C)Cc2ccccc2)[C@@H](C)CN([C@@H](C)CO)C(=O)c2cc(NC(=O)CCC(F)(F)F)ccc2O1,-5,-5,6,-5.5,0.4%,-0.7
Clc1ccc(C2=NNC(=NCc3ccc4c(c3)OCO4)SC2)cc1,-30,14,?,-24,13%,-1.9
COCCn1c(SCC(=O)NCc2ccccc2)nc2ccccc21,-5,3,0,2.0,0.0%,-0.1
COc1ccc(OCCn2c(N)nc3ccccc32)cc1,-7,9,-18,0.5,1.0%,0.3
COc1cc(C2N(c3cccc(Cl)c3)C(=O)C3CCCN32)cc(OC)c1OC (stereo unspecified),-5,5,10,-3.8,-3.6%,3.8
Cc1cc(C(F)F)n2ncc(C(=O)NC3CCCCCC3)c2n1,-22,22,-2,-1.3,1.8%,1.1
COc1cccc(CN2CCNC(=O)C2CC(=O)NCCc2ccccn2)c1 (stereo unspecified),-6,-22,-3,-1.7,-1.4%,0.3
CCn1cc(C(=O)N2CCN(c3cc(Cl)ccc3C)CC2)c(=O)c2cc(S(=O)(=O)N3CCOCC3)ccc21,.,11,.,.,1.7%,-0.1
CC(C)(C)OC(=O)N1CCC(c2c(C(=O)NCCN3CCC(Cc4ccccc4)CC3)cnn2-c2cccc(Cl)c2)CC1,.,-9,.,.,-0.8%,1.8
C[C@H](O)[C@@H]1CN2CCc3c([nH]c4ccccc34)[C@@H]2C[C@@H]1N(C)C(=O)Nc1cccc2ccccc12,-8,.,-5,-0.9,7.9%,-0.2
Cc1cccnc1NC(=O)c1ccc(NS(=O)(=O)c2ccc3[nH]c(=O)[nH]c3c2)cc1,-4,1,-3,-0.6,-0.5%,-0.3
O=C(NCc1ccncc1)C1COc2ccccc2O1 (stereo unspecified),-7,-5,8,-0.5,-0.8%,0.0
CCOC(=O)N1CCC(=NNC(=O)COc2ccc(C#N)cc2)CC1,2,23,-3,-6.7,1.0%,-0.3
O=c1cc(NCC2CCCO2)[nH]c(=O)n1-c1ccc(Cl)cc1 (stereo unspecified),8,3,-8,-1.8,.,-0.2
CC(=O)C1(C)N(O)C(C)(C)C(c2cccs2)=[N+]1[O-] (stereo unspecified),-16,-6,1,-1.1,0.9%,0.1
CCCN(CCC)C(=O)C1CCN(c2cc(C)nc3c(-c4ccc(OC)c(OC)c4)c(C)nn23)CC1,6,20,-28,-1.9,0.6%,-0.1
Cc1cc(C)cc(N(C(=O)CNC(=O)c2cccs2)C(C(=O)NC2CCCC2)c2cccnc2)c1 (stereo unspecified),-1,28,0,-0.4,-0.9%[38.3 µM],-0.3
CCOC(=O)C1(C)CCCCCN1C(=O)c1ccc(C(F)(F)F)nc1C (stereo unspecified),-8,20,10,-3.7,-0.5%,-0.4
CS(=O)(=O)N(CC(=O)Nc1ccccc1Sc1ccccc1)c1ccc(F)cc1,-7,-1,1,-2.0,0.8%,3.1
COc1ccc(C(=O)C2CCCN(C(=O)c3ccc(OC)o3)C2)c(C)c1 (stereo unspecified),-7,-4,-5,-1.4,1.6%,-0.1
CC1CCN(C(=O)c2cccc(S(=O)(=O)N3CCN(c4ccccc4)CC3)c2)CC1,-10,10,2,-5.9,1.9%,-0.6
CCCC#CCN1CCN(C23CC4CC(CC(C4)C2)C3)CC1,-20,-6,1,-1.2,-0.6%,1.2
O=C(CN1CCCCC1)NNc1nc(-c2ccccc2)c2cc(Br)ccc2n1,-1,-15,-3,-1.5,1.7%,0.6
CC(C)OC(=O)c1cc2ccccc2oc1=O,-4,-11,2,0.0,1.2%[38.3 µM],4.5
COc1cccc(C(=O)Nc2nnc(-c3ccccc3)s2)c1OC,-1,2,2,-2.8,12%,0.8
O=C(CSc1ccccc1)N1CCCC(N2CCN(c3ccccc3)CC2)C1 (stereo unspecified),-27,-15,-2,-5.4,0.4%,-0.7
O=S(=O)(c1cccc2cccnc12)N1CCN(c2ccc(F)cc2)CC1,-5,12,-3,-3.9,-2.3%,-0.4
CCOc1ccc(N2C(=O)CC(N(Cc3ccco3)C(=O)CC)C2=O)cc1 (stereo unspecified),-1,5,7,-1.9,-0.5%,4.8
CCc1ccccc1N1CC23C=CC(O2)C(C(=O)OCC(C)C)C3C1=O (stereo unspecified),0,-3,-2,8.7,1.4%,-0.3
CCOC(=O)c1sc(NC(=S)NC(=O)c2ccc(OC)cc2)nc1C,-6,-1,6,2.0,8.2%,0.1
Cc1ccc(NC(=O)CN2CCC(C(=O)c3ccc(F)cc3)CC2)cc1,-34,-7,-1,-1.0,-2.8%,2.6
CCCNC(=O)C1(C)CCN(C(=O)c2ccc(OC(F)F)cc2)C1 (stereo unspecified),-7,20,-1,-3.5,2.8%,0.1
O=C1S/C(=C\c2cccs2)C(=O)N1c1ccc(O)cc1,3,-4,-3,1.7,2.1%,2.0
Cc1ccc(OCC(=O)Nc2ccc(N3CCOCC3)cc2)cc1,11,7,-1,3.6,.,0.3
COc1ccc(C(CC(=O)c2ccc3c(c2)OCO3)C(=O)O)cc1OC (stereo unspecified),-12,25,9,-2.6,-0.3%,0.3
Cc1c(OCc2ccccc2)c(=O)ccn1Cc1ccc(F)cc1,-6,45,3,-0.8,-0.5%,1.9
COc1ccccc1Oc1coc2cc(O)ccc2c1=O,-7,-14,15,3.0,0.9%,1.2
Cc1[nH]n(-c2ccccc2)c(=O)c1N=Nc1ccc(F)cc1,0,25,?,-8.2,7.2%,1.8
Cc1ccc(-c2nc(CS(=O)(=O)CC(=O)NC(C)CCc3ccccc3)c(C)o2)cc1 (stereo unspecified),.,-5,.,.,-0.4%,0.9
CCc1ccc(NCc2cc3ccc(OC)cc3n(CC(=O)Nc3ccc(C)c(Cl)c3)c2=O)cc1,.,-1,.,.,2.4%,2.5
COc1cccc(CNc2ccc(S(=O)(=O)Nc3nccs3)cc2)c1O,-2,27,-22,0.9,-4.7%[38.3 µM],-0.3
COc1ccc(NC(=O)CCCn2c(=O)c3sccc3n(Cc3ccc(C)cc3C)c2=O)cc1,-12,13,-5,-1.9,0.2%,-0.6
Cc1ccc(OCC(=O)Nc2ccccc2N2CCOCC2)c(C)c1,-7,8,-3,-2.7,-0.3%,2.8
CCC1S/C(=N/S(=O)(=O)c2ccc(N)cc2)NC1=O (stereo unspecified),1,1,2,2.7,0.9%,0.4
Cc1ccc(NC(=O)CN(C)C(=O)Cn2ncc(Cl)c(Cl)c2=O)cc1,-8,-18,-4,-3.8,-1.2%,-0.6
NC(=S)NN=C1CCCCC12CCCC2,-4,-1,0,0.9,-2.5%,0.0
Cc1cc(C)c(NS(=O)(=O)c2ccc3c(c2)NC(=O)CCS3)c(C)c1,-5,-5&10,1,-0.6,-1.2%&0.5%,0.5&4.6
COc1ccc(C(CNC(=O)c2ccc(-c3ccccc3)cc2)N(C)C)cc1OC (stereo unspecified),-16,42,-9,-1.5,4.2%,-0.1
CCOc1ccc2nc(N3CCCC(C(=O)NCCc4ccc(OCC)c(OCC)c4)C3)sc2c1 (stereo unspecified),.,36,.,.,3.6%,0.5
